Screening data: PubChem BioAssay, Broad Institute
Tgondii IFNg – T. gondii growth inhibition under IFN-gamma | Toxoplasma gondii growth in IFN-gamma-treated host cells; stronger effect = lower value; reference of the scale not given here | activity change, negative = inhibition, %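 (about 20 µM by stock and volumes)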 | 69,000 tested, 3.8% active;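 active = below -70%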;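 note: host cells are HeLa cells infected with Toxoplasma gondii; parasite growth read as luciferase light; one replicate is shown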
* hit, by the source's call; i = inactive.

SMILES | Tgondii IFNg
CS(=O)(=O)N1CCC2(CC1)COC(COc1cccnc1)C2 (stereo not given) | -3
COc1ccc(-c2nc(CCNC(=O)c3ccccc3)cs2)cc1 | i
CO[C@H]1CN(C)C(=O)c2cc(NC(C)=O)ccc2OC[C@H](C)N(C(=O)Cc2ccccn2)C[C@H]1C | 16
O=S(=O)(NCc1csc(-c2cccs2)n1)c1cccs1 | -7
O=C1CCCn2cc(nn2)COCC2CCCN12 (stereo not given) | -14
CS(=O)(=O)c1ccc(CC(=O)NC(Cc2cccs2)c2cccnc2)cc1 (stereo not given) | 110
C=CCC(=O)Nc1c(C)cnn1C(CC)CC | -1
CC(C)N1CCc2ncn(C)c2C1C(=O)N1CCN(c2ccccc2)CC1 (stereo not given) | -29
CCCn1c(=O)c(-c2nc(-c3ccc(OC)c(F)c3)no2)c(O)c2ccccc21 | -54
COc1ccc(C(=O)NCC(c2ccc(F)cc2)N2CCCCC2)cn1 (stereo not given) | -5
NC(=O)c1cccc(CC2CCN(C(=O)CCN3CCCCCC3=O)C2)c1 (stereo not given) | -66
C=CC(=O)Nc1ccc2ncnc(Nc3cccc(Br)c3)c2c1 | -45
COC(=O)c1ccccc1NC(=O)N1CCC2(CC1)Nc1ccccc1-n1cccc12 | 98
Cc1cccc(S(=O)(=O)N2CCC(c3nc(C(=O)N4CCOCC4)c(C)o3)CC2)c1 | 19
Cc1ccccc1CNC(=O)Cn1ncc2c(N3CCOCC3)ncnc21 | -64
O=C(Cc1ccccc1)N1C[C@@H]2[C@H](c3ccccc31)[C@H](CO)N2S(=O)(=O)c1ccccc1 | -9
COc1cc(C)c(-c2c(-c3ccccc3)ncn2CC2COCCO2)cc1C (stereo not given) | -21
Cc1ccccc1CC1(CO)CCCN(c2nccc(N)n2)C1 (stereo not given) | -12
O=C(NCc1ccccn1)C1CCN(Cc2cc3n(n2)CCNC3)CC1 | 5
O=C(C1CCC2(CCN(Cc3cccc(F)c3)CC2)O1)N1CCCO1 (stereo not given) | 0
Cc1ccc(S(=O)(=O)Nc2ccc3c(c2)C(=O)N([C@H](C)CO)C[C@H](C)[C@@H](CN(C)S(=O)(=O)c2cccs2)OCCCC[C@@H](C)O3)cc1 | -47
Cc1ccc2nc(CN(C)C(=O)C3CC4(CCNCC4)CN3)[nH]c2c1 (stereo not given) | -4
CN1C(=O)c2cc(NC(=O)Nc3ccccc3Cl)ccc2OC[C@H]2O[C@@H](CC(=O)O)CC[C@H]21 | -9
CCN1c2ccc(Cl)cc2C(=O)NC12CCN(C(=O)NCc1ccccc1)CC2 | 97
CCS(=O)(=O)N1CCC2(CC1)OC(=O)C(C)=C2C(=O)NCCN(CC(C)C)CC(C)C | 32
O=C(NS(=O)(=O)c1ccc(Br)s1)c1ccc(Cl)cc1Cl | -53
C[C@@H]1CN([C@@H](C)CO)C(=O)c2cc(NC(=O)Nc3ccccc3)ccc2O[C@@H]1CN(C)Cc1ccccc1 | -45
c1cn2c(n1)CN(CC1CCOC1)CC(CN1CCCC1)C2 (stereo not given) | 425
CN(C)C1CCCN(C(=O)c2cc(-c3ccncc3)n[nH]2)CC1 (stereo not given) | -47
COCCO[C@@H]1CCN(CC2CC2)[C@@H]1Cc1cccnc1 | -5
CCc1nc(OCC(=O)Nc2cc(Cl)c(OC)cc2OC)c2ccccc2n1 | -8
COCCC(=O)c1ccc2nnc3nc(C)n(-c4ccccc4)c3c2c1 | 1
COC(=O)CCCNC(=O)Cc1c2c(n(C(C)C)c1C)CC(C)(C)CC2=O | 13
CN(C)S(=O)(=O)N1CCC2(C1)C(=O)NCC2c1ccccc1 (stereo not given) | -41
CC(=O)c1c(C)n(CC(=O)O)c2ccccc12 | 105
COCC1CN(C(=O)c2cc(C)on2)Cc2nccn2C1 (stereo not given) | 24
CCCC(=O)N1C[C@H]2[C@@H](c3ccccc31)[C@H](CO)N2C(=O)Nc1ccc(F)cc1 | -39
O=C(NC(=O)c1csnn1)Nc1nc2ccccc2s1 | -7
COc1cccc(S(=O)(=O)N(C)C[C@@H]2OCc3ccccc3-c3c(n(C)c4ccccc34)C(=O)N([C@H](C)CO)C[C@H]2C)c1 | -52
CCCc1nnc(NC(=O)C2CC(=O)N(CCc3c[nH]c4ccc(C)cc34)C2)s1 (stereo not given) | 46
CN(CC(=O)Nc1ccc(CN2CCCCCC2)cc1)C1CCS(=O)(=O)C1 (stereo not given) | -10
CCCc1ccc(S(=O)(=O)N2CCC3(CC2)Nc2cc(OC)ccc2-n2cccc23)cc1 | 9
COc1ccc(NC(C(=O)O)c2ccccc2)cc1 (stereo not given) | 78
Cc1nn(CC(=O)NCCCN2CCCC2=O)c(=O)c2nc(-c3ccccc3)sc12 | -20
FC(F)(F)c1ccc(-c2nnc(SCc3c(Cl)cccc3Cl)s2)nc1 | 96
Cc1cc(C(F)(F)F)n2nc(C3CCCN(C(=O)c4cc5c(s4)CCCC5)C3)cc2n1 (stereo not given) | -104*
CC(C)NC(=O)N1CCC(c2cc3c(ncn3C)c(NCc3ccccc3)n2)CC1 | -46
C[C@@H]1CN([C@@H](C)CO)C(=O)CCCn2nncc2CO[C@@H]1CN(C)CC1CCCCC1 | 105
O=C(C[C@@H]1C=C[C@H](NC(=O)c2ccc3c(c2)OCO3)[C@H](CO)O1)NC1Cc2ccccc2C1 | 14
CCn1c(C2CCNCC2)nn(CC23CC4CC(CC(C4)C2)C3)c1=O | -7
Following part.
SMILES | Tgondii IFNg
CCCN(Cc1ccc(OC)cc1)C(=O)Cc1nc(C)sc1C | -4
COc1ccc(-c2nc(Nc3ccc(C)c(C)c3)c3ccccc3n2)cc1 | -27
O=C(CNC(=O)c1ccc(Cl)cc1)NO | 17
CCNC(=O)C(C)NC(=O)c1ccc2cccnc2c1O (stereo not given) | -47
CC(C)NC(=O)N1C[C@@H]2N(c3ncccn3)CCC[C@@]2(C(=O)NCC2CC2)C1 | -3
Cc1ccc(C2(CN(CCN(C)C)C3CS(=O)(=O)CC3O)CCCCC2)cc1 (stereo not given) | 14
COc1ccc2c(c1)c(CC(C)NC(=O)c1ccc3c(c1)ncn3C)cn2C (stereo not given) | 25
O=C(NC1CCC(n2cnnc2)CC1)C1=Cc2ccccc2OC=C1 (stereo not given) | 5
CCCC(=O)Nc1ccc(-c2nc(-c3cc(C)ccc3C)co2)cc1 | 9
CC1c2ncc(CNC(=O)C3CC3)n2CCN1Cc1ccsc1 (stereo not given) | 4
COc1ccccc1-c1nc(C)c(-c2ccc(SCc3ccccc3)nn2)s1 | -1
O=C(CSc1ccccn1)c1ccc(OCc2ccc(F)cc2)cc1 | -23
CC1CCN(S(=O)(=O)c2ccc3c(ccc(=O)n3CC(=O)NC3CCCCCC3)c2)CC1 | -38
NCCNCCNCCN | 13
Cc1noc(CSCc2nc(CC(C)C)nn2-c2ccccc2)n1 | -23
Cc1ccc(C(NC(=O)CCn2c(C)cc(C)nc2=O)c2cccnc2)cc1 (stereo not given) | -4
CCc1ccc(-c2nccn2Cc2ccc3c(c2)n(C)c(=O)n3C)nc1 | 23
CN1C[C@@H](NC(=O)c2cccc(F)c2)C[C@H]1C(=O)NCCCc1ccccc1 | 3
CS(=O)(=O)N1CC(=O)N2[C@H](C1)[C@@H](c1ccc(C#Cc3ccc(F)cc3)cc1)[C@@H]2CO | -49
Cn1c(SCC(=O)C(C)(C)C)nnc1-c1cc(C(C)(C)C)nn1Cc1ccc(F)cc1 | -42

A different layout for part of the listing above:
Cc1ccc(C(NC(=O)CCn2c(C)cc(C)nc2=O)c2cccnc2)cc1 (stereo not given)
  Tgondii IFNg: -4

CCc1ccc(-c2nccn2Cc2ccc3c(c2)n(C)c(=O)n3C)nc1
  Tgondii IFNg: 23

CN1C[C@@H](NC(=O)c2cccc(F)c2)C[C@H]1C(=O)NCCCc1ccccc1
  Tgondii IFNg: 3

CS(=O)(=O)N1CC(=O)N2[C@H](C1)[C@@H](c1ccc(C#Cc3ccc(F)cc3)cc1)[C@@H]2CO
  Tgondii IFNg: -49

Looked up above:
Tgondii IFNg, Cn1c(SCC(=O)C(C)(C)C)nnc1-c1cc(C(C)(C)C)nn1Cc1ccc(F)cc1 : -42
Tgondii IFNg, CCc1ccc(-c2nccn2Cc2ccc3c(c2)n(C)c(=O)n3C)nc1 : 23

(continued)
SMILES | Tgondii IFNg
C=CCNc1ncc(-c2cnccn2)c(-c2c(C)noc2C)n1 | 0
CN(CC1CCCNC1)C(=O)CCSCc1ccc(F)cc1 (stereo not given) | -3
CN1c2ccc(-c3ccc(F)cc3)cc2[C@@H]2[C@@H](CCN2C(=O)Cc2cccnc2)[C@@H]1CO | -19
Cn1cc(CN2CCC(c3n[nH]c(=O)n3Cc3ccccc3)CC2)cn1 | 3
Nc1ccc2c(c1)CN(Cc1ccccc1)C2 | -47
C=CCN1CCc2cc(CN(Cc3ccncc3)Cc3ccc(OC)cc3)ccc21 | 14
C[C@H]1CN([C@@H](C)CO)C(=O)c2c(c3ccccc3n2C)-c2ccccc2CO[C@H]1CN(C)C(=O)[C@@H](Cc1ccccc1)N(C)C | -47
COCCCN(C(=O)Nc1ccc(F)c(F)c1)C1CCN(C)CC1 | 1
CCOC(=O)c1c(C)nc2c(c1-c1ccc(OC)c(OC)c1)C(=O)c1ccccc1-2 | 6
O=c1[nH]nc(Sc2ncccc2C(F)(F)F)n1-c1ccccc1C(F)(F)F | -52
COc1ccccc1NC(=O)N1C[C@H](O)COC[C@@H]2O[C@@H](CC(=O)N3CCC(Cc4ccccc4)CC3)CC[C@H]21 | -75*
Cc1ccc(-c2nc(NC(=O)c3csc(-c4cccs4)n3)sc2C)cc1Cl | 22
Nc1cc(C(=O)NCC(c2ccc(Cl)cc2)N2CCCC2)[nH]n1 (stereo not given) | -1
O=C1COC2(CCN(C(=O)c3ccc[nH]3)CC2)CN1CC1CC1 | 1
O=C(Cc1ccccc1)N1CC(C(=O)N2CCCC2)C2(CCOCC2)C1 (stereo not given) | 6
COc1ccc2c(c1)CCN(Cc1cc3sccc3n1CC1CCCCC1)C2 | 7
CO[C@@H]1CC[C@H]2CCN(C)C(=O)[C@@H](C)CN(C)C(=O)c3cc(C#N)ccc3OC[C@@H]1O2 | -23
Cc1cc(-c2nnnn2-c2ccc(C(F)(F)F)cc2)no1 | 19
Cc1noc(C)c1S(=O)(=O)NCc1cc(F)cc2c1OCOC2 | -19
O=C(c1c[nH]c2ccccc12)C1CCCCC1 | -56
COc1ccc(-c2c(-c3ccccc3)ncn2CCc2cnc[nH]2)c(F)c1F | -67
O=C(C1CCCN(C2CCN(CCCc3ccccc3)CC2)C1)N1CCCC1 (stereo not given) | -9
CN(C)CCOCC1CN(Cc2nccs2)Cc2ccnn2C1 (stereo not given) | 8
Cc1cc(N2CCCN(Cc3ccc(C4CCCCO4)o3)CC2)ccn1 (stereo not given) | -2
O=C(COC(=O)c1ccc(S(=O)(=O)NCc2ccco2)cc1)c1ccc(Cl)cc1 | 24
CCS(=O)(=O)Nc1ccc2c(c1)C(=O)N(C)C[C@@H](OC)[C@H](C)CN(CC1CCCCC1)[C@H](C)CO2 | -12
Cc1ccc(C2=NC3(CCN(CC(=O)Nc4ccc(F)cc4F)CC3)NC2=O)cc1C | 78
CN(C)c1ncncc1N1CCC(C(=O)N2CCC(N3CCCCC3)CC2)CC1 | -14
c1cncc(NCCCNC2CCSC2)c1 (stereo not given) | 5
NC(=O)C1CC2(NC(=O)NC2=O)c2cc(F)ccc2O1 (stereo not given) | 14
Cc1cc(=O)[nH]c(NCCn2cc(C(C)c3ccccc3)nn2)n1 (stereo not given) | -3
Cc1ccccc1C(=O)Nc1ccc(-c2nc(-c3ccccc3)co2)cc1 | 42
CCOc1ccccc1C(=O)N1CCC2(CC1)Nc1cc(OC)ccc1-n1cccc12 | 30
C[C@@H]1CN([C@H](C)CO)C(=O)c2cc(N(C)C)ccc2O[C@@H]1CN(C)CC1CCCCC1 | 8
Cc1ccc(CNC(=O)Nc2ccccc2)n1C | 0
COc1cc(CCC(=O)N2CCCC[C@@H]3[C@H]2[C@@H](c2ccccc2)CCN3C)on1 | 27
Cc1nccc(-c2nn(-c3ccc(F)cc3)ccc2=O)n1 | 52
COc1ccc(CN(C)C[C@@H]2OCCCC[C@@H](C)Oc3ccc(NC(=O)C4CCCCC4)cc3C(=O)N([C@H](C)CO)C[C@@H]2C)cc1 | 161
Cc1ccc(S(=O)(=O)N2CCC(c3nc(C(=O)N4CCOCC4)c(C)o3)CC2)cc1C | -18
CN(C)c1nc2c(c(=O)[nH]1)CCN(C(=O)NC13CC4CC(CC(C4)C1)C3)C2 | -3

Another view of part of the listing above.
SMILES,Tgondii IFNg
CC(C)N1CCc2ncn(C)c2C1C(=O)N1CCN(c2ccccc2)CC1 (stereo not given),-29
CCCn1c(=O)c(-c2nc(-c3ccc(OC)c(F)c3)no2)c(O)c2ccccc21,-54
COc1ccc(C(=O)NCC(c2ccc(F)cc2)N2CCCCC2)cn1 (stereo not given),-5
NC(=O)c1cccc(CC2CCN(C(=O)CCN3CCCCCC3=O)C2)c1 (stereo not given),-66
C=CC(=O)Nc1ccc2ncnc(Nc3cccc(Br)c3)c2c1,-45

Additional results.
SMILES | Tgondii IFNg
COC(=O)c1cc(C)nc(N2Cc3cnn(CCO)c3C2)n1 | 31
CCn1c(=O)c(-c2nc(-c3cccc(Br)c3)no2)c(O)c2ccc(F)cc21 | 7
COc1cccc(-c2cn[nH]c2C2CCN(C(=O)CCn3cncn3)CC2)c1 | 2
COc1ccc(-c2nc(C)c(CCNS(=O)(=O)c3ccc(-c4ccccc4)cc3)s2)cc1OC | -118*
N[C@@H]1CC[C@@H](CCn2cc(C3(O)CCCC3)nn2)O[C@H]1CO | -31
C[C@@H]1CN([C@H](C)CO)C(=O)c2cccc(NC(=O)NC3CCCCC3)c2O[C@@H]1CN(C)Cc1ccc(C(F)(F)F)cc1 | -64
O=C(Cn1cnc2c([nH]c3ccc(Br)cc32)c1=O)N1CCN(c2ccccn2)CC1 | 40

These rows are one share of the data; rates above refer to the full screens.
